# Screens as filed in PubChem BioAssay.
# Rango release inh = inhibitors of RanGTP-induced Rango-importin beta complex dissociation; O95149+P62826; Biochemical FRET Rango-importin beta, RanGTP-induced dissociation; Potency, µM (series often up to 46.1 µM), inactives show at the top dose activity change, negative = inhibition; 340,000 compounds, 0.071% hits; active means falling FRET ratio curve, often poorly fitted, with flat reads before Ran was added; inconclusive means other falling curves, or compound fluorescence or quenching; inactive means flat or rising ratio curve;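 also: potency is read from the fitted curve at half-maximal effect; % of control where 0% means no effect; nearly all actives have a fitted effect of over 45% in size; -100% = wells without RanGTP and RCC1; the record marks most hits as doubtful in a second field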
#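 Rango FRET biosensor (snurportin-1 IBB flanked by N-terminal EYFP and C-terminal CFP10) at 0.1 uM, with 0.25 uM importin beta in PBS, 1mM DTT, 0.02% Tween-20, 0.1% BSA. 0.6 uM Ran, 2mM GTP and 0.2 uM RCC1 were then added for 45 min at room temperature. Inhibition read as loss of FRET rise.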
# miR-21 reporter = miR-21 reporter, rising signal; 340,000 tested, under 10 active; Potency, µM (top dose mostly 38.3 µM), for the others: top-dose reporter change, positive = more light; HeLa miR-21 FLuc reporter, luciferase, 48 h; active = well fitted rising curve with a large enough effect; inconclusive = small, poorly fitted or top-dose-only effect; inactive = no such curve, though single readings can be large or run the other way;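 also: % of control where 0% means no effect; miR-21 action dims this reporter so a rising signal means less miR-21 action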
#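 HeLa miR-21-FLuc reporter line, endogenous miR-21; 2000 cells/well in DMEM/10% FBS; compound titration up to ~40uM final, 48 h, 37 degree Celsius; luciferase detection reagent, 15 min lysis, CCD luminescence.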
# Rango complex inh = inhibitors of Rango-importin beta complex formation. Rango CFP/YFP FRET sensor + importin beta, 45 min. Potency, µM (titrated, usually from 92.2 µM), without a hit: at the highest dose inhibition of complex formation. Q14974. 340,000 compounds, 0.031% hits; active = rising FRET ratio curve, often small or poorly fitted; inconclusive = mostly compound fluorescence or quenching in the first reads; inactive = flat curves in all reads;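 also: potency is read from the fitted curve at half-maximal effect; 0% = DMSO wells and 100% = buffer wells lacking importin beta; nearly all actives have a fitted effect of over 15% in size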
#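 Inhibition scored from the CFP 486 nm/YFP 530 nm FRET ratio 45 min after adding 0.125 microM importin beta to 50 nM Rango biosensor preincubated 5 min with compound (room temperature, PBS with DTT, Tween-20, BSA). No-importin wells as positive control.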
# GLA inh pH 4.5 = alpha-galactosidase A (human) inhibition, pH 4.5. P06280. purified enzyme, 4-MU-alpha-Gal fluorescence, pH 4.5. AID 1467. 230,000 tested, under 10 active. activity change, negative = inhibition, % at 105 µM; inconclusive = small, poorly fitted or top-dose-only inhibition, or a rising curve; inactive = flat fitted curve, though single readings scatter; no compound was filed as active;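 also: 0% = full activity with enzyme and -100% = basal without enzyme; dose as in the result columns while the protocol names 77 µM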
# Target sequence (P06280 whole entry, looked up): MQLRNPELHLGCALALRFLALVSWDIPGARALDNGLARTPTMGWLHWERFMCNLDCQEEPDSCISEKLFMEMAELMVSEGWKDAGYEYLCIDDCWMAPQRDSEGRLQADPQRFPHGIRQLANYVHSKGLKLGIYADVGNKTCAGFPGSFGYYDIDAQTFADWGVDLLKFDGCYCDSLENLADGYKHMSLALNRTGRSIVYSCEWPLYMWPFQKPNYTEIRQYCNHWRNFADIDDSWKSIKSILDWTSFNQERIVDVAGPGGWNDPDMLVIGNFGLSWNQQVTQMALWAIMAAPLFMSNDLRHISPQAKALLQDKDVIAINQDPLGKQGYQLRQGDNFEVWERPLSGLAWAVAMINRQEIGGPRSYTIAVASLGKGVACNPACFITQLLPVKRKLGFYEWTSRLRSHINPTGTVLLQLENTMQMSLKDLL
# The depositor's hits bear a star; ? = inconclusive; / = not tested or not shown. Not all compounds are listed, so the mix of outcomes need not match the whole.
SMILES,Rango release inh,miR-21 reporter,Rango complex inh,GLA inh pH 4.5
C=CCN1C(=O)NC(c2ccc(OC)cc2)(C(F)(F)F)S/C1=C(\C#N)c1nnc(N2CCOCC2)n1-c1ccccc1 (stereo not drawn),-6.1%,-3.9%,1.0%,-8.0
CC(=O)Nc1ccc(-c2cc(C(=O)O)c3ccc(C)cc3n2)cc1,-12.4%,1.9%,-0.6%,-2.3
COCCn1c(SCC(=O)c2ccccc2)nc2c(c1=O)SC(C)C2 (stereo not drawn),13.8%,-4.8%,3.6%,-4.2
COc1ccc2c(c1)c(=O)oc1cc(OCC(=O)N3CCC(C)CC3)ccc12,-4.5%,-0.5%,-6.6%,13.4
COc1ccc(S(=O)(=O)N2CCOC2CNC(=O)C(=O)NCc2ccco2)cc1C (stereo not drawn),2.1%,1.3%,4.5%,-4.0
COc1ccc(OCC(=O)Nn2c(-c3ccc(OC)cc3)nc3ccccc3c2=O)cc1,-7.5%,-9.1%,0.6%,3.0
CCOC(=O)c1c(C)[nH]c(C(=O)COC(=O)CCS(=O)(=O)c2ccc(C)cc2)c1C,-6.9%,-8.9%,-0.8%,-7.1
COC(OC)c1ccc(C#N)c(SCc2ccc(C)cc2)n1,-11.5%,-12.4%,2.1%,-6.5
O=C(Cn1c(=O)c2sccc2n(Cc2cccc([N+](=O)[O-])c2)c1=O)NCCc1ccccc1,0.0%,-3.7%,0.6%,-1.5
COc1ccc(C(C2C(=O)CC(C)(C)CC2=O)C2C(=O)CC(C)(C)CC2=O)cc1,3.3%,0.3%,-1.0%,0.3
Cc1cc(C)c(C#N)c(SC2CCCCC2=O)n1 (stereo not drawn),0.0%,-9.9%,?,1.2
COc1ccccc1Nc1nc2ccccc2[nH]1,-1.7%,-17.7%,2.3%,1.1
Cc1cccc(NC(=O)CSc2nc3ccc(NC(=O)CSc4nnnn4-c4ccccc4)cc3s2)c1C,/,-1.1%,/,6.8
CCc1nnc(NC(=O)c2cc(-c3ccccn3)nc3ccccc23)s1,-14.7%,1.1%,3.2%,3.2
CCN(CC)c1ccc(NC(=O)Nc2ccccc2)cc1,2.9%,-41.7%,1.3%,/
COc1cccc2cc(C(=O)Oc3ccc(NC(C)=O)cc3)c(=O)oc12,9.6%,-2.7%,0.1%,4.6
O=C(CN1C(=O)NC2(CCOc3ccccc32)C1=O)NCc1ccccc1 (stereo not drawn),-10.1%,/,3.8%,/
CC1=Nc2ccccc2/C1=C/c1nc(-c2ccc(C)s2)oc1O,?,0.2%,?,-4.7
CCCCc1nc2cc(Cl)ccc2o1,-17.5%,1.9%,0.2%,1.9
CC1CCCN(C(=O)COC(=O)Cn2cnc3ccccc32)C1 (stereo not drawn),0.2%,/,-0.1%,/
Cc1cc(C)c2cc(CN(CCCN(C)C)C(=S)NCc3ccccc3)c(=O)[nH]c2c1,5.2%,-5.9%,-0.9%,-5.4
Cc1ccc(C(=O)NCc2ccc3c(c2)OCO3)c(C)c1,-18.8%,-25.2%,1.3%,/
COc1ccc(C(=O)NCc2nnc(SCC(=O)Nc3nc4ccccc4s3)o2)cc1,1.7%,-29.1%,-0.5%,-3.1
O=S(=O)(CCc1nc2ccccc2s1)c1ccc2ccccc2c1,-12.3%,-23.4%,0.6%,-7.6

# Only miR-21 reporter and Rango release inh (two entries from above):
Molecule,miR-21 reporter,Rango release inh
Cc1ccc(C(=O)NCc2ccc3c(c2)OCO3)c(C)c1,-25.2%,-18.8%
COc1ccc(C(=O)NCc2nnc(SCC(=O)Nc3nc4ccccc4s3)o2)cc1,-29.1%,1.7%

# (listing goes on)
SMILES,Rango release inh,miR-21 reporter,Rango complex inh,GLA inh pH 4.5
CC(=O)N1CCN(C(=O)CNC(=O)c2ccc(Br)o2)CC1,-3.7%,-3.4%,1.3%,/
Cc1cc(Cl)ccc1NC(=S)Nc1ccccn1,-5.9%,-47.5%,0.8%,2.8
CCN(CC)C(=O)COc1ccc2c(-c3ccc(OC)cc3)cc(=O)oc2c1,-20.3%,3.0%,-4.3%,/
CCOC(=O)CN1C(=O)C(O)(CC(=O)c2ccco2)c2ccccc21 (stereo not drawn),4.0%,-4.9%,0.3%,5.8
O=C(COC(=O)c1cc([N+](=O)[O-])ccc1N1CCOCC1)c1ccc(F)cc1,26.6%,/,-2.2%,/
COc1ccc(C(=O)NC(Cc2ccc(OC(=O)c3ccc(OC)cc3)cc2)C(=O)O)cc1 (stereo not drawn),-10.5%,0.1%,-4.0%,6.0
CCCCN(C(=O)c1ccc(S(=O)(=O)N2CCCCC2)cc1)C1CCS(=O)(=O)C1 (stereo not drawn),-9.2%,/,6.6%,/
CCOC(=O)N1CCN(c2c(NCCc3ccc(OCC)c(OCC)c3)c(=O)c2=O)CC1,-3.0%,-3.4%,3.7%,5.6
Cc1ccc(C(=O)N2CCCC(C(=O)Nc3cccc(-c4ccc(F)cc4)c3)C2)cn1 (stereo not drawn),26.5%,14.0%,-1.1%,/
CC1(C)Cc2nc(N3CCOCC3)c(C#N)cc2CO1,13.4%,-3.9%,-1.4%,7.2
COc1ccccc1S(=O)(=O)Cc1ccc(C(=O)N2CCN(c3ccc(C)cc3)C(C)C2)o1 (stereo not drawn),21.1%,29.6%,4.3%,-2.4
CC(/C=C1\SC(=Nc2cccnc2)NC1=O)=C\c1ccccc1,-20.7%,6.6%,-0.7%,-3.7
COc1cc(/C=C/C(=O)O)cc(S(=O)(=O)N(CC(C)C)CC(C)C)c1OC,5.7%,-11.7%,5.1%,-3.8
COc1ccc(C2CC(=O)CCN2S(=O)(=O)c2ccc(C)cc2)cc1 (stereo not drawn),1.4%,/,0.8%,/
O=C(Nc1ccc2c(c1)C(=O)N(CC1CCCO1)C2=O)c1cccc(Br)c1 (stereo not drawn),-23.0%,1.1%,-0.8%,-2.9
CC1(C)CC(=O)c2sc(NC(=O)c3ccco3)nc2C1,-12.9%,-12.6%,-6.0%,-1.2
Cc1ccc(S(=O)(=O)N2CCCN(S(=O)(=O)c3ccc4c(c3)OCCO4)CC2)cc1,-6.8%,5.7%,0.2%,-9.2
O=C(Nc1cc(-c2nn(CC(=O)N3CCCCC3)c(=O)c3ccccc23)ccc1N1CCOCC1)c1ccc(Cl)cc1,1.2%,-9.5%,1.0%,-7.6
COc1ccc(Nc2ncnc3c2cnn3Cc2ccccc2)cc1OC,-13.8%,5.6%,-0.2%,-1.0
COC(=O)c1[nH]c2ccccc2c1NC(=O)CCN1CCSCC1,1.0%,5.0%,-1.1%,-13.2
O=C(c1sc2cc([N+](=O)[O-])ccc2c1Cl)N1CCOCC1,0.7%,-4.3%,2.9%,4.6
Cc1nnc(Nc2ccc(C(=O)N3CCOCC3)cc2)c2ccccc12,1.1%,-9.4%,0.0%,5.9
COc1cc(OC)cc(C(=O)N[C@H](C(=O)OCC(=O)Nc2ccc(F)c(F)c2)C(C)C)c1,4.4%,0.3%,7.4%,-2.0
COC(=O)COc1ccc(S(=O)(=O)Nc2ccc(C(N)=O)cc2)cc1Cl,17.9%,-4.7%,4.0%,-2.1

# Another view of two compounds above:
# Every second line gives: Rango release inh | miR-21 reporter | Rango complex inh | GLA inh pH 4.5
COC(=O)c1[nH]c2ccccc2c1NC(=O)CCN1CCSCC1
→ 1.0% | 5.0% | -1.1% | -13.2
O=C(c1sc2cc([N+](=O)[O-])ccc2c1Cl)N1CCOCC1
→ 0.7% | -4.3% | 2.9% | 4.6

# (further entries)
SMILES,Rango release inh,miR-21 reporter,Rango complex inh,GLA inh pH 4.5
CCn1c(C)nnc1SCC(=O)Nc1cccc(Cl)c1,-1.2%,0.6%,-2.0%,/
CCCN1C(=O)S/C(=C\c2ccc(N3CCOCC3)o2)C1=O,?,?,?,-9.2
N=C1/C(=C/c2cccs2)C(=O)N=C2SN=C(SCc3ccccc3)N12,-15.6%,-39.2%,-0.6%,0.4
O=C(CN1CCN(C(=O)c2ccco2)CC1)Nc1ccccc1-c1ccccc1,-29.7%,-0.3%,3.5%,3.5
CCC(=O)Oc1ccc(NC(=O)CSCc2ccccc2)cc1,-3.2%,-58.5%,-1.8%,9.6
COCCn1c(=S)[nH]c2cc(C(=O)N3CCN(c4ccccc4OC)CC3)ccc2c1=O,0.5%,-0.3%,0.6%,-1.4
CCN1C(=O)[C@H]2[C@@H](c3ccc(-c4ccc(Cl)c(Cl)c4)cc3)N[C@@](Cc3ccccc3)(C(=O)OC)[C@H]2C1=O,-0.8%,/,6.5%,/
COc1ccc(-c2ccn(-c3cccc(F)n3)n2)cc1,-12.9%,-7.2%,-1.9%,7.2
CC(C)[C@H](N)C(=O)NC[C@H](CC(=O)NC[C@H]1CC[C@H](C(=O)O)CC1)c1ccc(Cl)cc1,-5.8%,-0.7%,3.0%,/
O=C(CCN1CCN(CCO)CC1)Nc1ccc(C2CCCC2)cc1,-7.5%,-11.8%,-0.5%,1.2
CCSc1nc2c(c(=O)[nH]c(=O)n2C)n1Cc1ccc(Cl)cc1,-11.3%,-31.2%,-6.6%,9.2
COc1ccc(N2CCN(CCCNC(=O)C(=O)c3c(C)[nH]c4ccccc34)CC2)cc1,18.0%,-0.1%,4.5%,/
O=C(COC(=O)c1cc(=O)[nH]c2ccccc12)Nc1ccc(F)cc1F,0.8%,/,1.2%,/
COCCNC(=O)c1ccccc1N(Cc1ccccc1)S(=O)(=O)c1ccc(C)cc1,2.5%,0.5%,0.4%,-6.5
CCOCc1nnc(NC(=O)c2cccs2)s1,5.6%,-5.5%,-0.5%,-13.7
COC(=O)C(CCSC)NS(=O)(=O)c1ccc(Cl)cc1 (stereo not drawn),-4.4%,-3.6%,1.1%,-9.7
Cc1ccc2cc(COC(=O)c3ccco3)c(=O)[nH]c2c1,0.3%,-3.4%,?,6.0
CC(C)NC(=O)COC(=O)/C=C/c1ccco1,1.8%,-1.1%,0.2%,-1.5
CCOC(=O)C(=O)Nc1cc(C(=O)OC)cc(C(=O)OC)c1,-10.3%,0.0%,-0.8%,1.5
CCOC(=O)C1(Cc2ccccc2)CCN(Cc2ccc3c(c2)OCCO3)CC1,-4.7%,-1.2%,-0.3%,-13.1
Cn1c(N)c(C(=O)COC(=O)c2ccco2)c(=O)n(C)c1=O,-3.2%,-0.2%,-1.4%,0.8
COc1ccc(-c2nc(CS(=O)(=O)CC(=O)Nc3cccc(C(C)=O)c3)c(C)o2)cc1,-10.1%,-0.1%,0.5%,/
CCOC(=O)C1CCCN(C(=O)CNS(=O)(=O)c2ccc(Br)s2)C1 (stereo not drawn),3.0%,-9.9%,-1.7%,4.8
O=c1cc(N2CCN(c3cccc(Cl)c3)CC2)[nH]c(=O)n1C1CCCCC1,19.8%,15.0%,-2.0%,-3.6
CCn1c2ccccc2c2cc(NC(=O)COC(=O)C3CCC(=O)N3)ccc21 (stereo not drawn),-13.0%,-39.2%,-1.6%,-3.4
Cc1cc2nc(-c3ccco3)cc(C(F)(F)F)n2n1,-7.3%,0.2%,-1.1%,5.5
CCCCCc1ccc(OCCOCCn2c[n+](C)c3ccccc32)c(CCCCC)c1,1.1%,?,5.5%,-5.5
COC(=O)Cc1csc(NC(=O)CSc2nncn2C)n1,1.4%,/,0.2%,/
Cc1cc2c(c(=O)n1CCN(C)C)C(c1ccccc1Br)C(C#N)=C(N)O2 (stereo not drawn),-8.3%,2.6%,0.2%,-21.7
COc1ccc(C(=O)NCCc2nnc3ccc(SCC(=O)Nc4ccccc4)nn23)cc1,7.6%,-29.0%,2.5%,/
COc1cc(/C=C2/SC(=Nc3ccc(O)cc3)NC2=O)cc(OC)c1O,4.4%,11.8%,?,-23.5
O=C(c1cc(-c2ccccn2)nc2ccc(Br)cc12)N1CCc2ccccc2C1,/,-5.0%,/,-3.7
COc1ccc(-c2nc3ccccc3c(=O)n2O)cc1,-2.3%,-10.2%,-3.4%,/
CCOc1ccc(S(=O)(=O)N2CCC(C(=O)NCC3CCCO3)CC2)cc1 (stereo not drawn),-12.9%,4.7%,0.5%,/
CC1CCN(S(=O)(=O)c2ccc([N+](=O)[O-])cc2)CC1,2.0%,-0.4%,?,/
CCNc1nc(ON=C(C)C)nc(N(C)C)n1,0.3%,2.5%,-1.5%,0.6
